Mtb hypoxia rep – inhibitors of hypoxia-regulated fluorescent reporter in Mycobacterium tuberculosis; M. tuberculosis hypoxia-regulated fluorescent reporter, fluorescence; fluorescence inhibition, % (test concentration not listed); hit rate 0.1% among 300,000; AID 1159583;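 active = 35 to 45% if threefold the growth effect, above 45% if 1.5-fold the growth effect; inactive = the rest, general growth blockers included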;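 also: wells of about 50 µL received 100 nL stock; 0% = vehicle wells and 100% = reference inhibitor wells; whole bacteria with a GFP reporter of the hypoxia response; strong numbers were not always called active; many hits fall short of the cut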
BJeLR lethal – kills HRASV12-expressing BJeLR cells; inhibition, % (test concentration not listed); BJeLR (HRASV12) viability, CellTiter-Glo ATP luminescence, 48 h; reference of the scale not given here; hit rate 0.17% among 300,000;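 active = replicate mean above 50%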;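 also: 50 nL library stock added to about 25 µL; numbers are from one replicate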
PrP UTR inh – suppresses PrP 5' UTR mRNA reporter expression; cell-based PrP 5' UTR mRNA reporter, plate reader; inhibition, % (concentration not given with the values); hit rate 0.35% among 340,000;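 active = every replicate at 50% or more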;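 also: 0 = median of the neutral control wells; tested in H4 reporter cells; numbers are from one replicate; inactives centre near -14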
Sa ugtP lethal – compounds lethal to S. aureus RN4220 ugtP deletion mutant. OD600 growth, 16 h; some inactives read as strong as hits. growth inhibition, % (concentration not given with the values). AID 1259309. hit rate 0.54% among 330,000;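 active = z-score under -3 and OD600 up to 0.15 on both plates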;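 also: plate controls were untreated wells for no effect and antibiotic for full effect; wells of about 80 µL received 100 nL stock; the first replicate is given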
Sa RN4220 lethal – S. aureus RN4220 growth inhibition; OD600, 16 h; inhibition, % (concentration not given with the values); hit rate 0.33% among 330,000;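 active = z-score of -3 or lower and OD600 up to 0.18 on both plates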;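 also: plate controls were untreated cells for no effect and reference antibiotic for full effect; stock transfer was 100 nL into about 80 µL; one replicate is shown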
Bead autofluor – counter-screen for toxin protease inhibitors: compound fluorescence; AID 624483; fluorescence intensity (test concentration not listed); compound autofluorescence counterscreen, microsphere flow cytometry; hits give high values; hit rate 3.1% among 360,000;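 active = at least 3 SD above the mean of all compounds, about 16000 in these data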;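 also: 100 nL of 1 mM stock went into each well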
Mtb hypoxia rep growth – further read-out of Mtb hypoxia rep, marked with its call; growth inhibition, %; measured here: M. tuberculosis growth (absorbance);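 0% = vehicle and 100% = reference antibiotic; read after six days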
Active calls of the source: *; x = not tested or not shown. Outcome played no part in choosing rows; about 3.9% have a hit in one of these screens.

molecule	Mtb hypoxia rep	Mtb hypoxia rep growth	BJeLR lethal	PrP UTR inh	Sa ugtP lethal	Bead autofluor	Sa RN4220 lethal
COc1ccc(NC(=S)N2CCc3ccccc3C2)cc1OC	7	6	5	-13	14	4044	0.9
CC(C)C(c1nnnn1Cc1ccccc1)N(Cc1ccco1)Cc1cccs1 (configuration not stated)	12	10	5	-21	-6	2989	4.4
CCOC(=O)CC(NC(=O)c1ccco1)c1ccc(C)cc1 (configuration not stated)	5	1	1	-18	6	4035	4.2
CC(C)C(=O)Nc1ccc(O)c(-c2csc(N)n2)c1	12	1	-2	-9	-3	2278	2.1
COc1ccc(NC(=O)c2noc3c2CCC3)cc1	-5	5	2	-54	5	6488	3.8
C/C(=N/OC(=O)c1ccc(Br)cc1)c1ccc(C)cc1	x	x	-1	-8	x	4154	x
CC(=O)Oc1ccccc1C(=O)Oc1ccc(C=Nn2cnnc2)cc1	-5	-1	x	x	-8	x	-5.0
CC1Oc2ccccc2N(CC(=O)NCCc2ccccc2)C1=O (configuration not stated)	6	-1	-4	-2	8	26874*	3.9
Cc1cc(C(=O)COc2ncnc3sccc23)c(C)n1C1CC1	16	8	-4	-66	5	9500	5.3
O=C(Cn1cnc2c(nnn2Cc2ccc(Cl)cc2)c1=O)NCc1ccco1	2	1	-14	-13	17	9183	4.4
CC(=O)Nc1nn(C)c2nc(C)cc(C)c12	-8	8	-19	-22	4	4407	4.2
CN1CCC(OC(=O)c2cc3cc(Br)ccc3oc2=O)CC1	x	x	-6	-17	x	3789	x
CC(=O)Nc1ccc(NC(=O)Nc2cccc(Cl)c2)cc1	0	0	11	-29	2	4069	0.1
Nc1c(C(=O)NCCN2CCOCC2)c2nc3ccccc3nc2n1-c1ccc2c(c1)OCO2	-12	2	-2	-14	-13	7073	1.2
CC(=O)CC(=O)Nc1ccc2ccccc2c1	-1	-2	1	-12	-1	3763	4.2
O=C(NCCC1=CCCCC1)C(=O)NCc1ccccc1	13	1	4	-28	1	2197	2.7
CC(c1ccccc1)n1c(SCC(=O)Nc2ccccc2)n[nH]c1=O (configuration not stated)	3	-8	-1	-4	4	3250	2.2
O=C1NCCNC1(c1c[nH]c2ccccc12)C(F)(F)F (configuration not stated)	11	9	1	5	2	4910	-0.3
CCCOC(=O)C1[C@H]2C(=O)N(CC3CCCO3)C[C@]23C=C[C@H]1O3 (some centres not stated)	x	x	15	0	x	3233	x
COc1ccc(/C=C/C(=O)O)cc1Cl	-15	3	0	-20	10	4759	1.4
CN1C(C(=O)Nc2ccc(OC(F)(F)F)cc2)=CC(c2cccs2)=NS1(=O)=O	2	7	-2	-1	-21	5755	-13
O=C(COC(=O)c1ccc(F)cc1)NCCCc1ccccc1	-1	-6	-6	-6	7	3063	2.8
CC(C)c1nc(CNC(=O)CC2C(=O)NCCN2Cc2ccoc2)cs1 (configuration not stated)	11	6	7	-26	2	2429	7.9
CC(=O)Nc1cccc(Oc2ncnc3scc(-c4ccccc4)c23)c1	7	15	9	-21	-10	2098	-2.8
Nc1nonc1-n1nnc(C(=O)N/N=C/c2cc(Br)cs2)c1-c1ccccc1	x	x	7	0	x	5698	x
O=C(Nc1ncccc1O)c1cccc(S(=O)(=O)N2CCc3ccccc32)c1	8	7	13	-14	-10	3377	-13
CCOC(=O)N1CCC(NC(=O)c2ccc(CS(=O)c3ccc(Cl)cc3)o2)CC1 (configuration not stated)	-1	-6	9	-15	3	6368	0.8
CCn1c(O)c(N=NC(=O)c2cccc(S(=O)(=O)N3CCCCC3)c2)c2ccccc21	1	2	1	-35	10	2119	3.4
CC(=O)Nc1ccc(NC(=O)CN2C(=O)COc3ccc(S(=O)(=O)N4CCOCC4)cc32)cc1	15	7	12	-20	7	6351	5.0
O=C(NNS(=O)(=O)c1ccc(F)cc1)C1CCN(Cc2cccc(F)c2)CC1	12	0	-8	-28	0	2014	6.5

Three compounds out of the list, arranged by SMILES length, descending:
molecule	Mtb hypoxia rep	Mtb hypoxia rep growth	BJeLR lethal	PrP UTR inh	Sa ugtP lethal	Bead autofluor	Sa RN4220 lethal
O=C(NNS(=O)(=O)c1ccc(F)cc1)C1CCN(Cc2cccc(F)c2)CC1	12	0	-8	-28	0	2014	6.5
COc1ccc(NC(=S)N2CCc3ccccc3C2)cc1OC	7	6	5	-13	14	4044	0.9
O=C(NCCC1=CCCCC1)C(=O)NCc1ccccc1	13	1	4	-28	1	2197	2.7

The results go on:
molecule	Mtb hypoxia rep	Mtb hypoxia rep growth	BJeLR lethal	PrP UTR inh	Sa ugtP lethal	Bead autofluor	Sa RN4220 lethal
C/C(Nc1ccccc1)=C(/C#N)C(N)=O	-2	11	-3	-22	-2	11398	4.8
COc1ccccc1C(=O)NCC(=O)NN=Cc1ccncc1	5	4	x	x	-1	x	0.8
CC(CNC(=O)c1ccc(C#N)cc1)NC(=O)c1ccc(C#N)cc1 (configuration not stated)	3	-8	-3	-11	13	4222	2.7
COc1ccc(Cl)cc1NC(=O)C1Cc2ccccc2CN1S(C)(=O)=O (configuration not stated)	-1	1	4	-12	7	3833	0.3
CCC(C)NC(=O)CSc1nc2scc(-c3ccccc3)c2c(=O)[nH]1 (configuration not stated)	-3	5	6	-8	-9	2245	7.6
Cc1cc(-c2ccccc2)nc(N(C)NC(=O)C(C)(C)C)c1S(C)(=O)=O	14	4	-2	-19	2	3750	1.4
CC/S(=N\S(=O)(=O)c1ccc(C)cc1)c1ccccc1 (configuration not stated)	-5	-1	-9	-22	4	x	2.1
COc1cccc(NC(=S)NN=C2CCCCc3ccccc32)c1	-7	-5	x	x	30	x	1.1
Nc1nc(NCC2CCCO2)nc(Nc2cccc(F)c2)c1[N+](=O)[O-] (configuration not stated)	-1	12	-13	4	-5	6263	2.4
CCC1(C(=O)OC)NC(c2ccccc2OC)C2C(=O)N(C)C(=O)C21 (configuration not stated)	4	7	-14	-3	2	4171	3.7
COc1cccc(N2CCN(S(=O)(=O)c3ccc4c(c3)NC(=O)CS4)CC2)c1	-13	1	-13	-17	7	5426	2.7
COc1ccc(C2C(C(=O)c3sc(C)nc3C)=C(O)C(=O)N2CCN(C)C)cc1 (configuration not stated)	x	x	5	-3	2	4802	0.7
Cc1ccc([N+](=O)[O-])cc1NC(=O)Nc1cccc(F)c1	x	x	22	-12	x	4306	x
CCOC(=O)c1ccc(NC(=O)C(=O)NCc2ccncc2)cc1	1	0	-4	4	8	7710	5.1
COc1cc(C#Cc2c(-c3cncn3C)n(C)c3ccc(-c4cc(OC)c(OC)c(OC)c4)cc23)cc(OC)c1	10	13	x	-9	15	3144	7.5
COc1ccc(CNC(=O)CCSCc2ccc(C)cc2)cc1	0	4	-5	-3	9	3147	2.6
CCCCN(C(=O)CCC(=O)Nc1cc(C)on1)C(C(=O)NC1CCCC1)c1ccccc1OCC (configuration not stated)	7	12	3	2	2	5460	-3.1
Cc1ccc(-n2nnc(-c3cccnc3)n2)cc1	9	-3	-3	-75	0	4208	-4.5
CC(=O)Nc1ccc(NC(=O)C(Sc2ccccc2)c2ccccc2)cc1 (configuration not stated)	8	4	-4	-14	12	3601	3.5
CCOc1ccc(NC(=O)CSc2nnc(-c3ccncc3)n2CC2CCCO2)cc1 (configuration not stated)	2	11	-5	-18	4	3671	3.3
CCN(CC)CCN1C(=O)C(O)=C(C(C)=O)C1c1ccc(OC)c(OC)c1 (configuration not stated)	x	x	3	-2	4	2672	-1.3
COc1cc2c(c(O)c1OC)-c1c(cc(OC)c(OC)c1OC)C[C@@H](C)[C@@H](C)C2	x	x	-11	-25	x	4139	x
Cc1cccc(NC(=O)CCS(=O)(=O)c2ccc(Cl)cc2)c1	0	-8	-2	-19	2	3735	-1.0
Cc1cc2cc3c(cc2nc1SCc1ccc(C(=O)O)cc1)OCCO3	x	x	-17	-21	x	2360	x
C/C(=N\OCC(=O)Nn1c(C)nc2ccccc2c1=O)c1ccccc1	x	x	-9	-26	x	8912	x
CCN(CC)CCCN1C(=O)C(=O)/C(=C(/O)c2ccc(C)cc2)C1c1ccccn1 (configuration not stated)	x	x	-1	-15	1	3232	3.2
NC(=O)c1ccccc1NC(=O)c1cc(S(=O)(=O)N2CCCCC2)ccc1N1CCOCC1	5	4	x	-20	4	3541	1.4
CCc1ccccc1NC(=O)Cn1cccc1C1=NC(c2ccccc2)CO1 (configuration not stated)	5	4	-1	-7	6	10825	6.5
Cc1ccc(C(=O)Nc2ccc(F)cc2F)o1	x	x	-1	-13	1	4666	1.3
Cc1ccc(NC(=O)c2ccc3ncsc3c2)cc1S(=O)(=O)N(C)C	5	1	-1	x	7	x	5.9

molecule	Mtb hypoxia rep	Mtb hypoxia rep growth	BJeLR lethal	PrP UTR inh	Sa ugtP lethal	Bead autofluor	Sa RN4220 lethal
COc1cc(C(=O)O/N=C(\N)c2ccc([N+](=O)[O-])cc2)cc(OC)c1OC	6	3	-3	-14	-3	2598	0.0
Cc1ccc(S(=O)(=O)N2CCCC2CNC(=O)c2ccc3c(c2)OCO3)cc1 (configuration not stated)	7	3	-8	2	0	7943	2.1
CC(C)c1cc(C(F)(F)F)n2nc(C(=O)O)cc2n1	5	3	-16	x	0	11028	1.1
COc1ccc(CN2CCNC(=O)C2CC(=O)N2CCCN(C(C)=O)CC2)c(OC)c1 (configuration not stated)	6	0	1	-2	2	5245	4.8
CCN(CC)c1ccc(NC(=O)Cn2ncc3c(C)n(Cc4ccccc4F)c(C)c3c2=O)c(C)c1	6	8	10	-11	5	2588	3.2
CN(CC(=O)NC1CCCCCC1)S(=O)(=O)c1ccc2c(c1)n(C)c(=O)c(=O)n2C	-3	-4	4	-26	5	5177	5.2
CC(Sc1sc(=S)sc1SC(C)C(=O)O)C(=O)O (configuration not stated)	8	-4	0	-16	3	4695	6.4
CN(C)C(CNC(=O)c1ccc2c(c1)S(=O)(=O)c1ccccc1C2=O)c1ccco1 (configuration not stated)	10	11	1	-20	7	4120	1.4
Clc1ccc(OCc2nn3c(C4CCCCC4)nnc3s2)cc1	x	x	0	-9	4	2049	2.8
NC(=O)/C=C\C(=O)Nc1cccc(C(F)(F)F)c1	3	1	-3	-19	34	8492	6.1
COc1ccc(S(=O)(=O)N(CCc2ccccc2)CC(=O)NCCCO)cc1	16	7	-3	-17	2	9981	4.5
Cc1ccc(C(C(=O)NC(C)(C)C)N(Cc2ccccc2)C(=O)c2snc(C(N)=O)c2N)o1 (configuration not stated)	5	2	-9	-25	20	2217	6.2
CCOc1ccc(-c2nc(C#N)c(NCc3ccc4c(c3)OCO4)o2)cc1	8	5	2	-7	-7	4466	-1.0
O=C(OCC(=O)N1CCN(c2ccccc2)CC1)c1cc(Cl)ccc1[N+](=O)[O-]	5	10	-8	1	-1	5467	-1.3
O=C(CN1CCN(Cc2ccccc2)CC1)NN=Cc1ccc(Br)s1	1	6	x	x	-2	x	1.0
Cc1cccc(C(=O)c2cnc3ccccc3c2-c2ccccc2)c1	18	8	-7	-4	88*	3605	-1.5
COc1ccc(N2CC(C(=O)Nc3cc(C(F)(F)F)ccc3N3CCCC3)CC2=O)c(OC)c1 (configuration not stated)	2	11	12	-11	3	5753	0.6
O=c1ccc2cc3c([nH]c4ccc(Br)cc43)oc-2c1O	x	x	12	-23	0	3469	8.3
Cc1nc(-c2ccc(C(=O)Nc3cccc(F)c3)cc2)cs1	4	7	32	0	-5	4539	3.0

Quoted at random: four records from the list.
molecule	Mtb hypoxia rep	Mtb hypoxia rep growth	BJeLR lethal	PrP UTR inh	Sa ugtP lethal	Bead autofluor	Sa RN4220 lethal
COc1ccc(N2CC(C(=O)Nc3cc(C(F)(F)F)ccc3N3CCCC3)CC2=O)c(OC)c1 (configuration not stated)	2	11	12	-11	3	5753	0.6
COc1cc(C(=O)O/N=C(\N)c2ccc([N+](=O)[O-])cc2)cc(OC)c1OC	6	3	-3	-14	-3	2598	0.0
CC(C)c1cc(C(F)(F)F)n2nc(C(=O)O)cc2n1	5	3	-16	x	0	11028	1.1
COc1ccc(S(=O)(=O)N(CCc2ccccc2)CC(=O)NCCCO)cc1	16	7	-3	-17	2	9981	4.5
